eIF4H FP inh: inhibitors of RNA binding by human eIF4H; Q15056; eIF4H fluorescence polarization binding assay; inhibition, % at 35 µM; hit rate 0.94% among 290,000; AID 2012;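 active = 50% or more with normal probe brightness, or confirmed in later tests; inconclusive = above 50% with abnormal brightness, or retests that disagree; inactive = below 50% or failed in later tests; about a fifth of its hits are not listed in these tables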;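 also: calls also rest on retests at 20 µM and on dose response follow-up; 0% = protein and probe with vehicle and 100% = probe without protein; strong numbers were not always called active; many hits fall short of the cut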
PABP FP inh: PABP-poly(A) binding inhibition. AID 2014. P11940. PABP-poly(A) RNA binding, fluorescence polarization. hit rate 1% among 290,000. inhibition, % at 35 µM;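 active = 50% or more with normal probe brightness, or confirmed in later tests; inconclusive = above 50% with abnormal brightness, or retests that disagree; inactive = below 50% or failed in later tests; about a fifth of its hits are not listed in these tables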;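 also: calls also rest on retests at 20 µM and on dose response follow-up; controls were probe without protein and protein plus probe with vehicle; some compounds called inactive have numbers as strong as hits; many hits fall short of the cut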
Target sequence (P11940 whole entry, looked up): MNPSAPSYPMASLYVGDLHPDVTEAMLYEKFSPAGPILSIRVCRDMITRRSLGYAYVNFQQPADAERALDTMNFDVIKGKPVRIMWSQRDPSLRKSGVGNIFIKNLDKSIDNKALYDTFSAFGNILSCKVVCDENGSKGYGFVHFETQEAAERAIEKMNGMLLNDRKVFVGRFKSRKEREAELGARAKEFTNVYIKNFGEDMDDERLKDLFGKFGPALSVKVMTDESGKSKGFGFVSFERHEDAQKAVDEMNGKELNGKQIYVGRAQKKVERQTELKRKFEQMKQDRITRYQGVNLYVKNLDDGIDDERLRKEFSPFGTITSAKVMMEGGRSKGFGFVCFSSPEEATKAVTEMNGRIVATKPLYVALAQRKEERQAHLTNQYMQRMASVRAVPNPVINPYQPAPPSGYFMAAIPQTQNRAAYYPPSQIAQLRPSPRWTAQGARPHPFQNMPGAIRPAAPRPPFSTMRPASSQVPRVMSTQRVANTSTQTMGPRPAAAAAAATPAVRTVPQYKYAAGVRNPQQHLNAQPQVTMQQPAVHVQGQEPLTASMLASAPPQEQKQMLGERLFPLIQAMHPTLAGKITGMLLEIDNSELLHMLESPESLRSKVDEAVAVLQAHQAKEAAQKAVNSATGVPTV
HIV Env fusion: blocks HIV Env-driven cell-cell fusion. HeLa-JRFL Env/CEM21 cell fusion, luciferase. inhibition, % at 12.3 µM. hit rate 1.1% among 360,000;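 active = mean replicate inhibition score of at least 50 and every replicate individually at or above 50; inconclusive = only one of the two criteria met; inactive = mean below 50 and not all replicates reaching 50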;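 also: 0% = plate neutral controls and 100% = maraviroc near 300 nM; one replicate is shown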
CSC inhib: blocks cancer stem cells. cancer stem cell-like cells viability, luminescence. hit rate 1.1% among 300,000. inhibition, % at 7.5 µM;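 active = mean at 75% or more and at least half the replicates too; inconclusive = mean and replicates disagree; tested in HMLE shEcad cells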;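 also: 0% = median of negative and 100% = median of positive control wells; the first replicate is given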
UUG fidelity: yeast start codon fidelity modulation. S. cerevisiae UUG-firefly luciferase reporter, luminescence/redox ratio. activity score, % at 18.7 µM. hit rate 0.13% among 350,000. AID 602363;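 active = replicate mean at a twofold rise or more, about +100% in these data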;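 also: firefly luciferase made from a UUG start codon reports start codon fidelity; reporter light over untreated wells divided by growth signal over untreated wells; some hits fall short of that in this replicate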
MT1-MMP act inh: MT1-MMP (human) activation inhibition; P50281; HT1080 RFP-PRO-GFP cells, GFP/RFP ratio fluorescence, overnight; percent of plate control window, DMSO zero; GFP/RFP ratio change, % at 20 µM; hit rate 0.061% among 360,000;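 active = GFP/RFP ratio change of at least 30% with cell ATP level not reduced by more than half and red fluorescence within 50% of control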; also: strong numbers were not always called active
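Assay system: HT1080 RFP-PRO-GFP cells. Benchmarks: DMSO vehicle wells and RFP-L50D-GFP reporter cell wells. Times: overnight cell settling, then overnight compound exposure, 37 °C, 5% CO2. Compound: 20 µM single dose, 1% DMSO. Read-out basis: GFP/RFP fluorescence ratio.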
Rce1 inh: blocks yeast Ras-converting enzyme; hit rate 0.27% among 290,000; AID 2563; Q03530; calls only; yeast membranes, quenched prenylated peptide cleavage fluorescence;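 active = fall in fluorescence gain of 50% or more versus controls, with final raw signal at or below 3038400; inconclusive = same 50% fall but final raw signal above 3038400; inactive = fall in fluorescence gain under 50%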;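 also: plate controls were neutral control wells for no effect and wells lacking membranes for full effect; tested at 10 µM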
eIF4H FP inh retest: recorded beside eIF4H FP inh, whose call it bears; inhibition, %; compound at 20 µM; confirmation average;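 mean of two retest wells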
PABP FP inh retest: second read-out of PABP FP inh, no call of its own (marks repeat the call); inhibition, %; compound at 20 µM; confirmation repeats;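 mean of two retest wells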
MT1-MMP act inh RFP: second read-out of MT1-MMP act inh, no call of its own (marks repeat the call); RFP signal change, %; measured here: RFP expression control read;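 0 = vehicle wells; hits needed this value within 50% of zero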
Starred values were filed as active, the others as inactive; i = inactive; ? = inconclusive; / = not tested or not shown; & = joins results of further samples.

SMILES	eIF4H FP inh	PABP FP inh	HIV Env fusion	CSC inhib	UUG fidelity	MT1-MMP act inh	MT1-MMP act inh RFP	Rce1 inh	others
COc1ccc(-c2noc(-c3ccccc3-c3ccccc3)n2)cc1	-8.1	7.2	-21.6	31.1	-9.6	0.9	-1.5	i
CCOc1ccc(/C=N/OCC(=O)Nc2ccc3c(c2)OCO3)cc1	-7.0	-6.1	21.8	-4.1	-14.3	0.0	5.0	i
O=C(CNC(=O)c1ccccc1F)NC1CCN(Cc2ccccc2)CC1	-6.6	3.2	1.2	-3.0	-17.3	0.2	1.4	/
C=CCOc1c(Cl)cc(CNCCCN2CCOCC2)cc1OC	-9.9	8.5	14.5	-4.1	-0.3	7.1	3.1	/
CN(c1ccccc1)S(=O)(=O)c1ccc(NC(=O)c2ccco2)cc1	-2.1	-20.3	4.5	0.0	/	-0.9	-0.9	i
O=C(Nc1ccccc1C(=O)O)c1ncn[nH]1	8.5	13.8	/	/	-18.7	-4.1	-2.8	i
CCOc1ccc(OCCSc2nc3ccccc3o2)cc1	-6.2	5.1	/	-20.1	/	0.6	-3.2	i
O=C(/C=C/c1ccccc1)C1=C(O)C(=O)N(CCO)C1c1cccc([N+](=O)[O-])c1 (stereo unspecified)	-9.1	8.1	-2.9	0.4	-7.7	1.6	1.3	i
Cc1cccc(C(=O)Nc2sc3c(c2C(=O)O)CCCC3)c1	5.6	-2.7	8.4	17.5	-0.1	-9.5	-8.8	i
O=C(NC(c1ccc(F)cc1)c1ccc2ccccc2n1)C1CCN(Cc2ccc3ccccc3n2)CC1 (stereo unspecified)	/	/	8.6	/	-6.5	-1.8	1.3	/
O=S(=O)(Nc1ccc2c(c1)nc1n2CCN(Cc2ccccc2)C1)c1ccc(Cl)cc1	3.8	-0.5	-27.8	-7.3	-29.9	-2.4	-3.6	i
CCc1ccc(C2=NNC(=Nc3cccc(S(=O)(=O)N(C)C)c3)SC2)cc1	-10.1	-7.2	80.0*	10.0	/	-31.2	-29.5	i
Cc1[nH]c2ccc3c(ncn3CCC#N)c2c1C	12.1	16.4	-3.9	-13.4	-21.2	4.9	6.3	i
CCC(CC)c1nnc(NC(=O)C2CC(=O)N(CCc3ccc(OC)c(OC)c3)C2)s1 (stereo unspecified)	/	/	9.2	1.6	-4.9	-6.7	-11.1	i
Cn1c(N)c(N2CCCCC2)c(=O)n(CC(=O)Nc2cccc(C#N)c2)c1=O	/	/	-16.7	6.5	-18.6	0.7	3.2	/
COc1ccc(C(=O)CCC(=O)O)c(C)c1	-4.6	-3.7	-46.3	-15.1	-4.8	1.0	0.0	i
CCOC(=O)/C(=N\Nc1cccc(C(F)(F)F)c1)N(CCOC)CCOC	0.5	-3.7	-7.4	0.9	-4.6	3.8	3.7	i
Cc1ccc(C)c2[nH]c(=O)c(CN(CCCN(C)C)C(=O)NCc3ccccc3)cc12	-1.2	1.2	/	-2.7	6.2	-5.5	0.0	i
CCOc1ccc(NC(=O)c2cnc3scc(C)n3c2=O)cc1	0.7	4.9	-11.0	8.9	10.1	0.7	-3.4	i
Cc1ccc(CN2CC(N3CCN(c4ccccn4)CC3)CS2(=O)=O)cc1 (stereo unspecified)	/	/	6.6	/	5.6	2.7	3.6	/
CCCNC(=O)CSc1nc2ccc(OCC)cc2s1	-4.3	-4.4	5.4	/	/	-8.0	-3.6	i
COc1cc2nc(N(CCCN(C)C)C(=O)c3ccc(S(=O)(=O)N4CCc5ccccc54)cc3)sc2cc1OC	/	/	/	-11.2	-2.6	1.5	-0.3	i
Cc1ccccc1NC(=O)C(C)N1C(=O)c2ccccc2C1=O (stereo unspecified)	-5.2	3.6	-9.6	-0.1	-11.9	4.8	7.2	i
Cc1ccc(Cc2c(C)nc3nc(SCC(=O)NCCCN4CCCC4)nn3c2C)cc1	0.6	20.2	3.0	1.1	-22.9	-6.4	-1.7	i
COC(=O)c1cc(S(=O)(=O)NCCc2sccc2C)c[nH]1	10.4	14.8	1.5	-11.8	/	1.3	0.5	i
Cc1oc(-c2ccccc2Cl)nc1CS(=O)(=O)CC(=O)NC(C)c1ccccc1 (stereo unspecified)	-15.7	-10.8	20.9	0.2	20.6	3.3	-1.2	i
CCSc1ccc(-c2cc(NC=O)c3ncc(-c4cccc(C(=O)N(C)C)c4)n3c2)cc1	/	/	4.1	/	-16.4	-18.3	-0.8	/
CCOc1ccc(C(=O)NC(=S)Nc2cccnc2)cc1	7.6	6.5	-28.7	12.1	/	5.0	2.4	i
COc1ccc(C(=O)C2CCCN(C(=O)CSC)C2)cc1OC (stereo unspecified)	-2.0	7.9	-3.2	-9.0	-6.8	-0.2	-1.0	i
CCOc1c(Br)cc(C(N)=O)cc1OC	-4.1	0.9	-171.5	-5.3	-13.6	-7.5	-1.4	i
CC(=O)N/C(=C\c1ccccc1)C(=O)OC(C)C(=O)NCc1ccccc1 (stereo unspecified)	/	/	-1.0	-15.9	-18.8	2.7	1.0	i
CCOc1ccc(C(=O)NN2C(=O)C3C4C=CC(O4)C3C2=O)cc1 (stereo unspecified)	2.0	-12.2	/	/	-23.6	2.9	10.7	i
Cc1ccccc1NC(=O)CSc1ccc(-c2ccco2)nn1	?	0.3*	40.0	-3.2	-3.1	3.3	1.9	i	PABP FP inh retest=78.5*
CCNS(=O)(=O)c1ccc(NC(=S)N2CCc3ccccc32)cc1	-9.6	-1.1	16.2	-10.2	-11.9	-2.0	1.5	i
OCCNC(=S)Nc1ccc2nsnc2c1	6.2	-12.0	0.4	0.7	-18.4	-2.9	-1.6	i
CN(C)Cc1c(C(=O)N/N=C/c2cccc(OCc3ccccc3)c2)nnn1-c1nonc1N	/	/	-5.8	-8.2	0.8	3.4	-17.0	i

Quoted at random: two records from the list
SMILES	eIF4H FP inh	PABP FP inh	HIV Env fusion	CSC inhib	UUG fidelity	MT1-MMP act inh	MT1-MMP act inh RFP	Rce1 inh	others
Cc1[nH]c2ccc3c(ncn3CCC#N)c2c1C	12.1	16.4	-3.9	-13.4	-21.2	4.9	6.3	i
CCSc1ccc(-c2cc(NC=O)c3ncc(-c4cccc(C(=O)N(C)C)c4)n3c2)cc1	/	/	4.1	/	-16.4	-18.3	-0.8	/

The listing continues.
SMILES	eIF4H FP inh	PABP FP inh	HIV Env fusion	CSC inhib	UUG fidelity	MT1-MMP act inh	MT1-MMP act inh RFP	Rce1 inh	others
O=C(NCc1ccccc1)c1cc(C2CCCN(C(=O)CCc3ccccc3)C2)on1 (stereo unspecified)	/	/	9.2	/	-4.2	-1.0	1.4	/
Cc1ccccc1OCC(=O)OCC(=O)NCc1cccs1	-5.2	3.0	4.0	-11.6	/	5.9	6.6	i
O=C(Nc1ccccc1)c1nccn1Cc1ccc(F)cc1	1.3	1.2	-9.8	7.4	-4.6	4.6	-1.7	i
COc1ccc(NS(=O)(=O)c2ccc(NC(C)=O)cc2)cc1OC	12.7	-7.5	62.4*	-17.3	-34.8	3.5	-17.7	i
Cc1ccc(OCC(=O)NNC(=O)c2ccco2)c(C)c1	-12.4	-5.1	-2.6	-5.3	-15.3	0.6	2.8	i
COc1cc2nc(CN3C(=O)c4ccccc4C3=O)oc(=O)c2cc1OC	2.2	-0.5	/	-10.4	1.8	4.7	7.5	i
CCCCCn1c(C(C)NC(=O)CCC)nc2ccccc21 (stereo unspecified)	-9.9	6.5	74.5*	-12.6	-11.9	-0.3	-3.0	i
CN1/C(=C/C(=S)NC(=O)C2CCC2)C(C)(C)c2ccccc21	-5.3	-11.6	-8.0	7.9	-29.5	-17.3	7.9	i
Nc1ncnc2c1ncn2C1CCCC(CO)O1 (stereo unspecified)	/	/	-6.5	/	-8.5	5.9	-2.1	/
O=C(OCc1cccc([N+](=O)[O-])c1)c1cc(=O)[nH]c2ccccc12	-1.2	-4.4	/	-4.9	/	/	/	i
COc1ccccc1CC(NC(C)=O)C(=O)NC1CCN(C(=O)Nc2ccccc2C)CC1 (stereo unspecified)	0.2	5.5	-4.9	13.6	4.3	0.6	2.7	i
CC[C@@]1(C(=O)OC)N[C@H](CN(C)C(C)=O)[C@@H]2C(=O)N(Cc3ccccc3)C(=O)[C@@H]21	/	/	18.4	/	6.2	1.7	5.4	/
CCOC(=O)c1cc(NC(=O)NC2CCCCC2)c(C)nc1C	-1.4	0.9	-11.5	-4.2	-9.9	3.8	1.0	i
COc1ccc(CC(=O)Nc2nc(OCCN3CCCC3=O)cnc2-c2cccc(C(F)(F)F)c2)cc1	/	/	12.8	/	-10.2	1.8	-0.3	/
C=CC[C@@H](CC(=O)N(CCO)Cc1ccccc1)C(=O)N[C@H](COC(=O)[C@@H](CC=C)CC(=O)OC(C)(C)C)Cc1ccccc1	/	/	-117.9	/	-14.3	-22.7	-19.8	/
CC1CCCCN1CCn1cnc2c([nH]c3ccccc32)c1=O (stereo unspecified)	-9.1	-16.4	-65.9	-13.7	-11.3	-0.5	6.8	i
CCOC(=O)c1c(NC(=O)CN2C(=O)C(=O)N(CC(C)C)C2=O)sc(C)c1CC	/	/	-9.0	-3.3	/	1.6	-2.0	i
CC(=O)Nc1ccc(OCC(=O)Nc2ccc(Cl)c(S(=O)(=O)N3CCOCC3)c2)cc1	/	/	26.8	9.1	0.1	20.0	-27.5	/
Cc1c(C(=O)NCCC2=CCCCC2)oc2ccc(S(=O)(=O)N3CCC4(CC3)OCCO4)cc12	-1.5	-8.5	17.6	18.0	-20.6	3.3	-12.7	i
CCc1ccccc1NC(=O)c1ccc([N+](=O)[O-])s1	-0.6	-3.6	-0.4	14.8	/	0.3	-5.9	i
CC(C)NC(=O)N(C)C[C@H]1Oc2ccc(NC(=O)Nc3ccccc3)cc2C(=O)N([C@@H](C)CO)C[C@@H]1C	/	/	8.6	-2.1	-4.1&-1.7	0.8	2.9	/
O=C(NCc1ccc(F)cc1)Nc1ccccc1	2.4	-2.0	/	17.4	1.7	-0.8	1.2	i
O=C(CSc1ccc(-c2ccc(F)cc2)nn1)NCC1CCCO1 (stereo unspecified)	-0.7	-10.3	-1.5	-15.9	-7.4	1.0	-0.9	i
NS(=O)(=O)c1cccc(NC(=O)COC(=O)/C=C/c2ccco2)c1	38.0	39.1	9.9	-7.1	/	-1.9	5.9	i
O=C(CSc1n[nH]c(-c2ccco2)n1)Nc1ccc(F)cc1	-16.4	-7.6	-6.3	-5.8	-13.7	4.7	6.4	i
CCNC(=O)CP(=O)(c1ccccc1)c1ccccc1	-1.2	2.2	/	1.7	-16.7	-1.7	2.6	i
O=C(/C=C/c1ccc(Cl)cc1)c1ccc([N+](=O)[O-])o1	/	/	-310.4	?	-17.4	-68.7	-29.9	i
CC(C)CCN1CCN(Cc2cccc3cccnc23)CC1CCO (stereo unspecified)	1.6	8.6	8.9	25.1	11.2	-1.6	0.3	i
CCc1ccc(C2C(C#N)=C(N)N(N(C)C)C3=C2C(=O)CCC3)s1 (stereo unspecified)	54.2	2.0	-9.0	-14.1	/	2.6	6.7	i	eIF4H FP inh retest=31.6;PABP FP inh retest=2.9
O=C(CSc1ccc2nnc(-c3ccccn3)n2n1)Nc1ccc2c(c1)OCO2	-4.8	-5.3	-11.4	-9.3	-16.9	1.9	3.2	i
COc1ccccc1-n1cnnc1SCC(=O)Nc1cccc(S(=O)(=O)N2CCCCC2)c1	7.0	-12.3	26.4	-2.0	/	/	/	i
CC(=O)c1ccc(N2CCN(S(=O)(=O)c3cn(C)cn3)CC2)cc1	-6.4	-3.7	-1.9	-24.5	-13.1	-9.0	1.8	i

Screening results deposited in PubChem by several laboratories.
